# GIRK2 activ = opens human GIRK2 potassium channels. P48051. HEK293-GIRK2 thallium flux, Thallos fluorescence. calls only for hits at 25 µM. hit rate 0.05% among 63,000;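 active = among the strongest 0.2% of first-round signals and kept after retests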;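 note: first round at about 10 µM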
# Target sequence (P48051 whole entry, looked up): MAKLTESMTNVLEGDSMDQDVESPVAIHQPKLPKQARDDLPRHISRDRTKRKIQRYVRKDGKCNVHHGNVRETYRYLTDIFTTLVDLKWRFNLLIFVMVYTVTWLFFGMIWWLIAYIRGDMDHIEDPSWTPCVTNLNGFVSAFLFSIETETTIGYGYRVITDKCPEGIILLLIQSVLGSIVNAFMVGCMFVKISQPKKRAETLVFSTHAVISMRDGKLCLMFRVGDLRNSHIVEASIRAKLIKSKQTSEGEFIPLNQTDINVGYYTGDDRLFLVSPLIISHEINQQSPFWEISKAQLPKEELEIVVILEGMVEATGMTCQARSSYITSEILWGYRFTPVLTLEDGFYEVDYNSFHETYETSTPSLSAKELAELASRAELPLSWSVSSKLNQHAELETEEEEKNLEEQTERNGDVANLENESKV
# Calls only; i = inactive. An excerpt, so the mix of outcomes need not match the whole.
1	NC(=O)c1nnn(-c2ccc(NC(=O)c3cc(-c4ccccc4)on3)cc2)n1
  GIRK2 activ: i
2	Nn1c(COc2ccc(Cl)cc2)nn2c(=O)c3ccccc3nc12
  GIRK2 activ: i
3	COc1cccc(CNC(=O)Cn2cccc(S(=O)(=O)N3CCCCCC3)c2=O)c1
  GIRK2 activ: i
4	Cc1cc(CCNC(=O)NC(C)(C)C)on1
  GIRK2 activ: i
5	COCCCNC(=O)/C(C#N)=C1\N=C(NC(=O)c2cccc([N+](=O)[O-])c2)c2ccccc21
  GIRK2 activ: i
6	O=c1ccc(-c2ccccc2)nn1CCN1CCN(S(=O)(=O)c2ccc3c(c2)OCCO3)CC1
  GIRK2 activ: i
7	CCOC(=O)CNC(=O)c1cc2n(n1)CCCO2
  GIRK2 activ: i
8	COc1c(C)c2c(c(O)c1C/C=C(\C)C(O)CC(=O)O)C(=O)OC2 (centres undefined)
  GIRK2 activ: i
9	Cc1ccc(S(=O)(=O)N2CCN(c3cc(N4CCCC4)ncn3)CC2)s1
  GIRK2 activ: i
10	O=C(Nc1cccc(Cl)c1)N1CCC(Oc2ccc(C(F)(F)F)cn2)CC1
  GIRK2 activ: i
11	CC(COc1ccccc1Cc1ccccc1)N1CCCCC1 (centres undefined)
  GIRK2 activ: i
12	CCOc1ccc(NC(=O)c2nnn(-c3ccc(OC)cc3)c2C2CC2)cc1
  GIRK2 activ: i
13	COC(=O)Cn1c(=O)c2c(nc3n2CC(C)CN3c2ccc(OC)cc2OC)n(C)c1=O (centres undefined)
  GIRK2 activ: i
14	CCOC(=O)CCNc1cc(N2CCc3ccccc3CC2)nc(-c2ccccn2)n1
  GIRK2 activ: i
15	Cn1cc(C2=C(c3ccc(OC[C@@H](O)CO)cc3)C(=O)NC2=O)c2ccccc21
  GIRK2 activ: i
16	O=C(COc1ccc(-n2cccn2)nn1)Nc1nc2ccccc2[nH]1
  GIRK2 activ: i
17	COc1ccc(CNC(=O)NCc2nc(C)no2)cc1OC
  GIRK2 activ: i
18	COc1ccc(CCNC(=O)c2ccc3c(=O)n(-c4ccccc4)c(=O)[nH]c3c2)cc1OC
  GIRK2 activ: i
19	O=C(O[C@H]1[C@@H]2C=CO[C@@H](O[C@@H]3O[C@H](CO)[C@@H](O)[C@H](O)[C@H]3O)[C@@H]2[C@@]2(CO)O[C@@H]12)c1ccc(O)c(O)c1
  GIRK2 activ: i
20	COc1ccc(N2C(=O)CSC23C(=O)N(CC(=O)Nc2ccc(F)cc2)c2ccccc23)cc1 (centres undefined)
  GIRK2 activ: i
21	NC(=O)CN1CCN(Cc2nc3ccccc3[nH]2)CC1
  GIRK2 activ: i
22	Cc1[nH]c(=O)[nH]c(=O)c1CCc1nnc(SCC(=O)NNC(=O)c2ccccc2)o1
  GIRK2 activ: i
23	C#CCOCC1CCCN(C(=O)NCC)C1 (centres undefined)
  GIRK2 activ: i
24	O=C(NCCCS(=O)(=O)N1CCc2ccccc2C1)c1ccc([N+](=O)[O-])o1
  GIRK2 activ: i
25	COc1ccc(Cn2c(=O)[nH]c3cc(-c4nc(-c5ccccc5)no4)ccc3c2=O)cc1
  GIRK2 activ: i

# Laid out differently: results already given
entry | GIRK2 activ | structure
13 | i | COC(=O)Cn1c(=O)c2c(nc3n2CC(C)CN3c2ccc(OC)cc2OC)n(C)c1=O (centres undefined)
9 | i | Cc1ccc(S(=O)(=O)N2CCN(c3cc(N4CCCC4)ncn3)CC2)s1

# Carrying on:
26	CN(CC#CCNC(=O)CCn1ccc(=O)[nH]c1=O)Cc1ccccc1
  GIRK2 activ: i
27	COc1cccc(-c2cn3c(C(=O)Nc4ccccn4)csc3n2)c1
  GIRK2 activ: i
28	COc1ccc(NC(=O)Cn2c(C)nc3c(c2=O)CN(Cc2ccccc2)CC3)cc1
  GIRK2 activ: i
29	CCN(CC)C(=O)c1cc2c(=O)n3ccccc3nc2n1Cc1ccccc1
  GIRK2 activ: i
30	CS(=O)(=O)c1ccc(NC(=O)C2CCN(S(=O)(=O)c3ccc(F)cc3)CC2)cc1
  GIRK2 activ: i
31	CC(O)(CNC(=O)c1ccc(OC(F)(F)F)cc1)c1ccco1 (centres undefined)
  GIRK2 activ: i
32	C[C@@]12C[C@]3(O)O[C@H](O1)[C@]1(COC(=O)c4ccccc4)[C@H]3C[C@@]12O[C@@H]1O[C@H](CO)[C@@H](O)[C@H](O)[C@H]1O
  GIRK2 activ: i
33	COc1cccc(NC(=O)Cn2nc3c(N4CCCC4)nccn3c2=O)c1
  GIRK2 activ: i
34	O=C(NC(c1ccccc1)c1ccccc1)N1CCC(Oc2ccc(Cl)cn2)CC1
  GIRK2 activ: i
35	O=C(NCC1(O)CCOc2ccccc21)c1cccs1 (centres undefined)
  GIRK2 activ: i
36	C=C(C)Cn1c(=O)c2c(nc3n2CC(C)=NN3CCOC)n(C)c1=O
  GIRK2 activ: i
37	O=c1c(-c2ccccc2)c(C(F)(F)F)oc2c3c(ccc12)OCN(CCN1CCOCC1)C3
  GIRK2 activ: i
38	C=CCN1CC(c2nc3ccccc3n2CCOc2ccc(OC)cc2)CC1=O (centres undefined)
  GIRK2 activ: i
39	COc1ccc(SCC2CCN(S(=O)(=O)c3cc(OC)ccc3OC)CC2)cc1
  GIRK2 activ: i
40	COc1ccc(CCNC(=O)CC2CCCCN2S(=O)(=O)c2ccc(Cl)cc2)cc1 (centres undefined)
  GIRK2 activ: i
41	CCC(=O)Nc1ccc(C(=O)NCCNS(=O)(=O)c2cc(F)ccc2OC)cc1
  GIRK2 activ: i
42	COc1ccc(S(=O)(=O)N2CCn3cccc3C2c2ccc(F)cc2)cc1C (centres undefined)
  GIRK2 activ: i
43	NC(=O)c1ccccc1OCC#CCNC(=O)c1ccoc1
  GIRK2 activ: i
44	CCOc1ccccc1Oc1coc2cc(OC(=O)c3cccc([N+](=O)[O-])c3)ccc2c1=O
  GIRK2 activ: i
45	COc1cc(COCC2CCN(Cc3ccccc3F)CC2)cc(OC)c1
  GIRK2 activ: i
46	CC(C)(C)c1ccc(C(=O)Nc2cc(N3CCCC3)ncn2)cc1
  GIRK2 activ: i
47	Cc1cnnn1-c1ccc(C(=O)Nc2ccccc2Cl)cc1
  GIRK2 activ: i
48	CC1Oc2ccccc2CN(c2ccc(OC(F)(F)F)cc2)C1=O (centres undefined)
  GIRK2 activ: i
49	O=C(c1ccco1)N1CCN(C(=O)c2cc(=O)c(OCc3ccccc3)co2)CC1
  GIRK2 activ: i
50	Cc1nc(-c2ccc(N3CCN(C(=O)c4cc(-c5ccco5)[nH]n4)CC3)nc2)no1
  GIRK2 activ: i

51	COc1ccc(/C=C2\Oc3cc(O)cc(O)c3C2=O)cc1O
  GIRK2 activ: i
52	O=C(Cn1nc2c(=O)n(-c3ccc(F)cc3)ccn2c1=O)N1CCN(c2ccc(F)cc2)CC1
  GIRK2 activ: i
53	COC1CC(=O)C23C(=O)NC(CC(C)C)C2C(C)C(C)=CC3/C=C(\C)CCC(O)C1O (centres undefined)
  GIRK2 activ: i
54	CCCCN1CC(c2nc3ccccc3n2Cc2ccccc2OC)CC1=O (centres undefined)
  GIRK2 activ: i
55	O=C(CSc1nnnn1-c1ccccc1C(F)(F)F)Nc1ccc2nccnc2c1
  GIRK2 activ: i
56	OC(COCC1CC2CCC1C2)Cn1cnc2ccccc21 (centres undefined)
  GIRK2 activ: i
57	O=C(NCCC(O)c1cccc2ccccc12)c1ccccc1F (centres undefined)
  GIRK2 activ: i
58	Cn1nc(CNC(=O)C(C)(C)C)cc1-c1ccncc1
  GIRK2 activ: i
59	COc1cccc(NC(=O)Cn2cccc(-c3nc(-c4ccc(Cl)cc4)no3)c2=O)c1
  GIRK2 activ: i
60	O=S(=O)(Cc1ccccc1Cl)NCC1CCN(S(=O)(=O)c2cccnc2)CC1
  GIRK2 activ: i
61	CCCCOc1cccc2c1CCN(Cc1cccc(C)c1)C2=O
  GIRK2 activ: i
62	Cc1noc(NS(=O)(=O)c2ccc(NC(=O)c3cc4cc(Cl)ccc4o3)cc2)c1C
  GIRK2 activ: i
63	N#Cc1ccc(COCC2CCN(S(=O)(=O)c3ccc(Cl)cc3)CC2)cc1
  GIRK2 activ: i
64	O=C(c1ccc2nsnc2c1)N1CC(c2nc3ccccc3[nH]2)C1
  GIRK2 activ: i
65	C=CC(C)n1c(=O)c2c(nc3n2CCN3c2ccc(Oc3ccccc3)cc2)n(C)c1=O (centres undefined)
  GIRK2 activ: i
66	O=c1[nH]c2nc(NC3CCOCC3)ncc2cc1Oc1ccc(F)cc1F
  GIRK2 activ: i
67	COc1cc(/C=C/C(=O)NCCN2CCN(S(C)(=O)=O)CC2)cc(OC)c1OC
  GIRK2 activ: i
68	COc1ccc(CNC(=O)Nc2nc3ccc4nc(C)sc4c3s2)cc1OC
  GIRK2 activ: i
69	Cc1cc(C(=O)N2CC(Oc3nc4ccccc4s3)C2)no1
  GIRK2 activ: i
70	CCOCCn1c(=O)c2c(nc3n(-c4cccc(C)c4C)c(-c4ccccc4)cn23)n(C)c1=O
  GIRK2 activ: i
71	Cc1ccc(C)c(NC(=O)c2nnn(-c3ccc4noc(-c5ccccc5)c4c3)c2C)c1
  GIRK2 activ: i
72	O=C(/C=C/c1ccc(O)cc1)OCC1OC(O[C@]2(CO)OC(CO)C(OC(=O)/C=C/c3ccc(O)cc3)C2O)C(OC(=O)/C=C/c2ccc(O)cc2)C(O)C1O (some centres undefined)
  GIRK2 activ: i
73	CCOC(=O)Oc1ccc2c(=O)c(-c3ccc(OC)c(OC)c3)coc2c1
  GIRK2 activ: i
74	O=C(Cn1c(-c2ccccn2)nc2ccccc21)Nc1nc2ccccc2s1
  GIRK2 activ: i
75	COc1ccc(Cl)cc1C(=O)NCC1(O)CCc2ccccc2C1 (centres undefined)
  GIRK2 activ: i

# Values in list order from above.
# GIRK2 activ, entries 61–70, in order: i, i, i, i, i, i, i, i, i, i

# Returning to the listing with the seven entries that preceded the break.
item | structure | GIRK2 activ
69 | Cc1cc(C(=O)N2CC(Oc3nc4ccccc4s3)C2)no1 | i
70 | CCOCCn1c(=O)c2c(nc3n(-c4cccc(C)c4C)c(-c4ccccc4)cn23)n(C)c1=O | i
71 | Cc1ccc(C)c(NC(=O)c2nnn(-c3ccc4noc(-c5ccccc5)c4c3)c2C)c1 | i
72 | O=C(/C=C/c1ccc(O)cc1)OCC1OC(O[C@]2(CO)OC(CO)C(OC(=O)/C=C/c3ccc(O)cc3)C2O)C(OC(=O)/C=C/c2ccc(O)cc2)C(O)C1O (some centres undefined) | i
73 | CCOC(=O)Oc1ccc2c(=O)c(-c3ccc(OC)c(OC)c3)coc2c1 | i
74 | O=C(Cn1c(-c2ccccn2)nc2ccccc21)Nc1nc2ccccc2s1 | i
75 | COc1ccc(Cl)cc1C(=O)NCC1(O)CCc2ccccc2C1 (centres undefined) | i
76 | O=C(CCSc1ccccc1)NCCOc1ccc(-c2ccccn2)nn1 | i
77 | COc1ccc(C(=O)NCCS(=O)(=O)N2CCC(Cc3ccccc3)CC2)cc1 | i
78 | O=C(CSCc1ccccc1)N1CC(c2nc(-c3ccc[nH]c3=O)no2)C1 | i
79 | COc1cccc(CNC(=O)c2sccc2N(C)S(=O)(=O)c2ccccc2)c1 | i
80 | O=C(CSc1ncnc2nc(N3CCc4ccccc4C3)sc12)NC1CCCCC1 | i
81 | COc1ccc(NC(=O)Cn2cnc3c([nH]c4cc(OC)c(OC)cc43)c2=O)cc1Cl | i
82 | Cc1ccccc1OCC(O)Cn1c(SCC(=O)c2ccccc2)nc2c1c(=O)n(C)c(=O)n2C (centres undefined) | i
83 | COc1ccc(-n2ncc(C(=O)N3CCN(Cc4ccccc4)CC3)c2-n2cccc2)cc1 | i
84 | CCC(C(=O)Nc1cnoc1)c1ccccc1 (centres undefined) | i
85 | COCCn1c(C(=O)Nc2ccc3c(c2)OCCO3)cc2c(=O)n(C)c(=O)n(C)c21 | i
86 | Cc1cc(OCC(=O)Nc2cc(-n3cccn3)ncn2)ccc1Cl | i
87 | Cc1nc(-c2ccc(N3CCN(C(=O)Nc4cccs4)CC3)nc2)no1 | i
88 | O=C(Nc1c(C(=O)N2CCN(c3ccccc3)CC2)[nH]c2ccccc12)c1ccc(Cl)cc1 | i

# Bioassay records from PubChem BioAssay.
